Screens as filed in PubChem.
CDC25B CDK2 inh: primary biochemical HTRF screen for blockers of M-phase inducer phosphatase 2 binding to CDK2/cyclin A; 94,000 tested, 0.72% active; P30305+P24941; HTRF CDC25B-CDK2/CyclinA binding, anti-His/anti-Flag; hits give high values; z-score (test concentration not listed);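 further: score is relative to mean and SD of negative controls; strong numbers were not always called active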
HIV TAR-Tat: TAR RNA-Tat peptide displacers, HIV-1, primary screen, biochemical, FRET, FAM/TAMRA-labeled Tat; 100,000 tested, 0.6% active; AID 1259389, 2018; z-score (test concentration not listed); HIV-1 TAR RNA, Tat peptide displacement FRET; hits give high values;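 further: score is relative to mean and SD of negative controls; some compounds called inactive have numbers as strong as hits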
* marks the source's active call; other numbers are inactive results; / = not tested or not shown.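 How the source made its calls: active means z-score from 3 up in half or more of its runs; inactive means the rest.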

Structure,CDC25B CDK2 inh,HIV TAR-Tat
CCc1nn(C(CC)C(=O)NCc2cccnc2)c(=O)c2cc3oc(C)cc3n12 (stereo unspecified),-1.29,0.02
CC(=O)NC(=O)/C(C#N)=C/Nc1ccc(F)c(Cl)c1,-0.85,/
O=C1CCC2(CC1)OCCO2,1.38,/
CC(=O)N1CCSc2ccc(S(=O)(=O)NC3CCC(C)CC3)cc21 (stereo unspecified),/,2.33
CCOC(=O)Nc1c(C)noc1C,-1.17,/
O=C(CS(=O)(=O)c1ccc2c(c1)S(=O)(=O)N=CN2)Nc1ccc2c(c1)OCCO2,/,1.94
Cc1nc(-c2csc(S(=O)(=O)NCc3cccnc3)c2)no1,/,2.17
O=C(NCc1csc(-c2cccs2)n1)Nc1ccccc1-c1ccccc1,-0.07,/
COc1cc(OC)c(NS(=O)(=O)c2cc(-c3noc(C)n3)cs2)cc1Cl,/,1.5
CCCc1cc(NCCCO)n2c(nc3ccccc32)c1C#N,-1.42,/
O=C(c1cc(-c2cccs2)on1)N1CCCC1c1ccccc1F (stereo unspecified),1.06,-0.09
COc1ccc(OC)c2[nH]c(=O)c(CCNC(=O)c3cc4ccccc4oc3=O)cc12,-0.97,/
Cc1nn(-c2ccccc2)c2c1C(c1ccc(O)cc1)C(C#N)=C(N)O2 (stereo unspecified),-2.98,0.7
CC1(C)CC(=O)C(C2CC(c3ccccc3)OC3=C2C(=O)CC(C)(C)C3)C(=O)C1 (stereo unspecified),-1.32,1.25
CCCCCCSC1=C(C#N)C(=O)NC(CO)S1 (stereo unspecified),0.2,0.48
CCc1ccc(CN2CCC(N3CCN(CCO)CC3)CC2)cc1,-0.61,1.05
C=CCN1C=C(OC(=O)c2ccccn2)c2ccccc2S1(=O)=O,0.89,0.65
Cc1c(Cl)c([N+](=O)[O-])nn1CCCC(=O)Nc1sc2c(c1C(N)=O)CCC(C)C2 (stereo unspecified),-0.3,/
COc1cc([N+](=O)[O-])cc(/C=N/Nc2nc3ccccc3[nH]2)c1O,0.22,/
Cc1nc(N2CCCC2)cc(N2CCN(C(=O)c3ccc(C(C)(C)C)cc3)CC2)n1,-2.05,0.29
Cc1c(NC(=O)c2ccc3c(c2)OCO3)c(-n2cnnc2)nn1C,-3.01,2.48
CC1(C)Cc2nc3sc4c(=O)n(CCCc5ccccc5)cnc4c3cc2CO1,/,0.09
O=C(Nc1ccc(F)cc1F)N1CCC2(CC1)Nc1cc(F)ccc1-n1cccc12,/,-1.01
CCC(CC)C(=O)Nc1nnc(SCc2cc(=O)n3c(C)csc3n2)s1,/,0.5
Cn1c(=O)n(C)c2cc(N3CCOCC3)c(NS(=O)(=O)c3cccc(Cl)c3)cc21,/,1.39
O=C1/C(=C/c2cccs2)CCC/C1=C\c1cccs1,-0.27,/
Cc1cccc(-c2nc(SCc3cc(=O)n4nc(C(C)C)sc4n3)n[nH]2)c1,/,0.88
COc1ccccc1Nc1ncnc2c1nc1n2CCCC1,/,1.34
CC1CCN(S(=O)(=O)c2ccc3nc(N4CCN(c5ccccn5)CC4)ccc3c2)CC1,/,2.36
CCN1CCN(C(=O)CN(C)c2nnc(N3CCCCC3=O)s2)CC1,/,1.59
CC1=Nc2ccc(Br)cc2C(c2ccccc2)N1CC(=O)O (stereo unspecified),1.11,1.7
Cc1c(-c2ccc(-c3ccccc3F)cc2)nc2ccc(F)cc2c1C(=O)O,-0.92,/
Cc1nc(Sc2ccccc2)c(C#N)c(C)c1[N+](=O)[O-],0.16,/
CCc1ccc(-c2cc(C)no2)cc1S(=O)(=O)Nc1cc(OC)cc(OC)c1,/,0.06
Cc1ccc(S(=O)(=O)c2ncsc2Sc2ccc([N+](=O)[O-])cc2[N+](=O)[O-])cc1,-1.39,/
O=C1CCCc2cc(S(=O)(=O)N3CCC(N4CCCCC4)CC3)ccc2N1,/,-0.62
O=C(NCc1ccccc1)NC(c1ccc(Cl)cc1)c1nnc(-c2ccccc2)o1 (stereo unspecified),/,0.93
CN(C)CCSc1nc2ccccc2n1Cc1ccccc1,0.28,/
CS(=O)(=O)Nc1cccc2nsnc12,-2.29,1.12
CCN1CCN(c2c(C(=O)c3ccccc3)cnc3cc4c(cc23)OCO4)CC1,-0.28,0.64
Cc1cc(S(=O)(=O)N2CCc3cc4ccccc4nc32)ccc1F,-1.03,-1.48
C=C(C)c1cccc(C(C)(C)NC(=O)NCc2ccncc2)c1,-0.96,1.45
Cc1cc(C)nc(NS(=O)(=O)c2ccc(Nc3nc(-c4c(C)nc5ccccn45)cs3)cc2)n1,-2.37,/
CCOC(=O)c1nc(N2CCCC2)c2oc3ccccc3c2n1,/,0.57
CC1(C)c2cc(O)ccc2OC1N1CCOCC1 (stereo unspecified),0.09,/
O=C(CSCCOc1ccccc1)NCc1ccco1,0.15,/
Cc1occc1-c1nnc(SC(C)C(=O)Nc2ccc3c(c2)OCCO3)o1 (stereo unspecified),-0.75,0.01
CC1CCCCN1C(=O)Cn1c(=O)oc2cc(S(=O)(=O)N3CCCCC3)ccc21 (stereo unspecified),0.79,1.08
CC1CCN(S(=O)(=O)c2ccc3c(c2)N(C)C(=O)CC(=O)N3C)CC1,-2,1.57
O=C(NCc1ccccn1)C(=O)NCc1n[nH]c(=O)c2ccccc12,/,0.96
COc1ccc(/C=C2\SC(=S)N(CCC(=O)Nc3cc(C)on3)C2=O)cc1OC,-3.02,/
O=C(c1ccc(-n2ccc3ccccc32)s1)N1CCN(c2ccccc2)CC1,/,0.64
COc1ccccc1Nc1nc2ccccc2c2nnc(C)n12,/,-1.48
CCOC(=O)c1cnc(SC(CC)C(=O)N2CCN(c3ncccn3)CC2)nc1N (stereo unspecified),/,0.84
Cc1ccc(C(CNC(=O)c2sc3ccccc3c2Cl)N2CCCC2)o1 (stereo unspecified),0.13,-0.04
Cc1c(C(=O)NC2CCCC2)oc2ccc(S(=O)(=O)N3CCOCC3)cc12,-0.08,/
O=[N+]([O-])c1cc(-c2nc(-c3ccccn3)no2)cs1,-3.73,/
CCOC(=O)c1c(NC(=O)COc2ccc(Br)cc2)sc2c1CCC2,-0.21,1.37
CC(C)NC(=O)C(=O)NCC1CCCO1 (stereo unspecified),-0.19,0.11
O=C(CSc1nc2c(c(=O)[nH]1)CCCC2)Nc1ccccc1F,-1.64,14.6*

Continuation:
Structure,CDC25B CDK2 inh,HIV TAR-Tat
Cc1ccc(/C(O)=C2\C(=O)C(=O)N(CCCn3ccnc3)C2c2ccco2)cc1 (stereo unspecified),-3.38,-1.65
COc1ccc(-c2nc(CSc3nnc(C)n4c3cc3sccc34)c(C)o2)cc1OC,/,2.85
CC(C)OCCCNC(=O)C1CCN(c2ncnc3c2nc2n3CCCCC2)CC1,/,-1.74
COc1ccc(-n2c(-c3cccs3)n[nH]c2=S)cc1,-0.64,/
O=C(CSc1nc2ccccc2[nH]1)N1c2ccccc2Sc2ccccc21,-1.15,/
CC(C)n1c(CN2CCN(C)CC2)nc2ccccc21,0.65,1.98
Cc1c2cnn(CC(=O)NC(C)c3ccc4c(c3)OCCO4)c(=O)c2c(C)n1Cc1ccc(F)cc1 (stereo unspecified),-5,0.92
Cc1[nH]c(=S)[nH]c(=O)c1CCC(C)C,-0.71,/
CC1Cc2cc(S(=O)(=O)CCC(=O)NCCC3=CCCCC3)ccc2N1C(=O)C1CC1 (stereo unspecified),/,-1.48
Cn1nnnc1SCCNCc1ccsc1,0.1,0.25
Cc1ccc2nc(-c3ccco3)[nH]c2c1,2.66,-4.7
Cc1ccc(C)c(CN2CCCN(Cc3ccccc3C)S2(=O)=O)c1,/,1.31
O=C(Nc1ccccc1Cl)C(=O)c1c[nH]c2ccccc12,-2.73,0.68
CCOc1ccc(C2c3c(oc4ccc(F)cc4c3=O)C(=O)N2c2nc(C)c(C(=O)OC)s2)cc1 (stereo unspecified),-0.6,0.76
O=C(Cc1cc(Br)sc1Br)Nc1cccc(C(F)(F)F)c1,0.1,/
O=S(=O)(c1ccc(Cl)cc1)c1nc(-c2ccccc2)oc1N1CCOCC1,/,1.45
O=c1c(Sc2ccc(Cl)cc2)c(Sc2ccc(Cl)cc2)c1=O,-0.7,/
Cc1cc(C)n(Cc2cc(C)c(Cn3nc(C)cc3C)cc2C)n1,-0.67,-0.8
Cc1ccoc1C(=O)N1CCCCC1C(=O)O (stereo unspecified),2.09,1.68
Cc1ccc(Cl)c2c1N[C@@H](c1ccc(C(=O)O)cc1)[C@H]1CC=C[C@@H]21,-0.02,1.42
O=C1CCCN1CCCn1c(=O)[nH]c2ccccc2c1=O,-0.94,/
CCc1nc2nc(C)c(NS(=O)(=O)c3ccc(C)c(C)c3)c(=O)n2[nH]1,0.39,1.32
O=C1NN=C(c2ccccc2)C1CCO (stereo unspecified),-0.94,-1.11
CSc1ncc(Cl)c(C(=O)Nc2nc(C)c(C(=O)OCC(C)C)s2)n1,-0.86,-4.87
COC(=O)c1cc2c(cc1NC(=O)c1c3c(nc4ccccc14)C(=O)N(C1CCCCC1)C3)OCO2,/,0.88
Cc1cccc(-n2cc(-c3ccccc3)c3c(N4CCC5(CC4)OCCO5)ncnc32)c1,-0.86,/
COC(=O)c1ccc(N2C(=O)C3C4c5ccccc5C(C)(c5ccccc54)C3C2=O)cc1 (stereo unspecified),-1.69,0.18
Fc1ccccc1C(NCc1cccs1)c1nnc(-c2ccccc2)o1 (stereo unspecified),/,-0.17
Cc1ccccc1-n1c(SCc2cn3ccccc3n2)nnc1-c1cc2occc2n1C,/,-0.4
COc1cc(OC)c(Nc2c(-c3ccc(C(C)C)cc3)c(=O)c2=O)cc1Cl,/,1.23

As a working copy, part of the list above:
Structure,CDC25B CDK2 inh,HIV TAR-Tat
COC(=O)c1ccc(N2C(=O)C3C4c5ccccc5C(C)(c5ccccc54)C3C2=O)cc1 (stereo unspecified),-1.69,0.18
Fc1ccccc1C(NCc1cccs1)c1nnc(-c2ccccc2)o1 (stereo unspecified),/,-0.17
Cc1ccccc1-n1c(SCc2cn3ccccc3n2)nnc1-c1cc2occc2n1C,/,-0.4
COc1cc(OC)c(Nc2c(-c3ccc(C(C)C)cc3)c(=O)c2=O)cc1Cl,/,1.23

Compound profiles, from the list above:
`CCc1nc2nc(C)c(NS(=O)(=O)c3ccc(C)c(C)c3)c(=O)n2[nH]1` is listed with CDC25B CDK2 inh = 0.39; HIV TAR-Tat = 1.32
`Cc1ccc(C)c(CN2CCCN(Cc3ccccc3C)S2(=O)=O)c1` is listed with CDC25B CDK2 inh = /; HIV TAR-Tat = 1.31
`Cc1c2cnn(CC(=O)NC(C)c3ccc4c(c3)OCCO4)c(=O)c2c(C)n1Cc1ccc(F)cc1` (stereo unspecified) is listed with CDC25B CDK2 inh = -5; HIV TAR-Tat = 0.92

Remaining list, next part.
Structure	CDC25B CDK2 inh	HIV TAR-Tat
CCOc1ccc(C(=O)Cn2c(C)[n+](C)c3ccccc32)cc1	-1.67	1.28
CN(C)c1ccc(NCc2ccccn2)cc1	-3.03	/
CCCC(CCC(=O)Nc1nncs1)C(=O)O (stereo unspecified)	-0.72	-0.28
CC(=O)OCC12CC=C(C)C(C1)C(c1ccccc1OC(C)=O)OC2 (stereo unspecified)	-1.39	0.16
CCSCCOC(=O)C1=C(C)NC2=C(C(=O)C(C(=O)OC)C(C)C2)C1c1ccc(SC)cc1 (stereo unspecified)	-0.56	0.43
COc1ccc(C(=O)N/N=C/c2cccn2-c2ccc(Cl)cc2)cc1	-1.71	/
Cc1noc(/C=C/N(C)C)c1S(=O)(=O)N1CCN(c2ccc(F)cc2)CC1	/	-2.33
Cc1cc(-c2ccc(S(=O)(=O)N3CCc4ccccc4C3)c(C)c2)on1	/	0.37
CCOC(=O)c1c(C)cc(O)c(C)c1O	/	0.76
C=CC1=C(C(=O)O)N2C(=O)[C@@H](NC(=O)C(=NOCC(=O)O)c3csc(N)n3)[C@H]2SC1	/	25.5*
CCNc1oc(COc2ccc(F)cc2)nc1C#N	1.14	2.22
O=C(CSc1n[nH]c(-c2ccc(F)cc2)n1)N1CCc2ccccc21	/	0.63
Cn1c(=O)[nH]c(=O)c2c1nc(N(CCO)Cc1ccccc1)n2CCCc1ccccc1	1.58	/
O=C(NNc1nc(-c2cccc([N+](=O)[O-])c2)cs1)c1ccccc1Cl	0.54	/
COc1ccc(OC)c(NC(=O)CC(C)S(=O)(=O)c2ccc3c(c2)CCN3C(C)=O)c1 (stereo unspecified)	/	0.63
CC1=CCC2C(=O)N(c3cccc(C(=O)OCC(=O)c4ccc(Br)cc4)c3)C(=O)C2C1 (stereo unspecified)	-0.5	-1.6
CC(=O)N1CCSc2ccc(S(=O)(=O)N3CCCC3)cc21	/	0.7
Cc1noc(C)c1S(=O)(=O)NCc1cc(F)cc2c1OCOC2	-0.29	/
CSc1ncc(CO)n1Cc1ccccc1	/	0.78
CCOC(=O)c1c(NC(=O)c2nc3ncccn3n2)sc2c1CCCCC2	1.88	0.97
CCc1nnc2c(N3CCN(c4ncccn4)CC3)nc3ccccc3n12	/	-0.65
C=CCOC(=O)c1sc(N2C(=O)c3oc4ccccc4c(=O)c3C2c2cccs2)nc1C (stereo unspecified)	0.19	-0.21
O=C(Nc1cccc2nsnc12)C1CCN(S(=O)(=O)N2CCCC2)CC1	/	-0.8
CCOc1ccc(-c2noc(CSc3nnc(C)n3-c3ccccc3)n2)cc1	-1.08	-0.3
O=S(=O)(NN1C2CSC1CS2)c1ccc(F)c(Cl)c1	1.88	/
CC1CC(C)CN(Cc2csc3c2CCCC3)C1 (stereo unspecified)	/	-0.4
CC(C)N1C(=O)C2ON(c3ccccc3)C(c3cccs3)C2C1=O (stereo unspecified)	-0.26	3.92
